Bioassay records: PubChem BioAssay, National Center for Advancing Translational Sciences (NCATS)
NPR1 antag – human Npr1 receptor antagonism; P16066; HEK293 hNpr1 GloSensor cGMP, ANP-stimulated luminescence; Potency, µM (series often up to 46.3 µM), for the others: at the top dose activity change, negative = inhibition, actives largely listed as inhibitors; hit rate 1.6% among 76,000; active = well fitted inhibition curve with a large enough effect; inconclusive = small, poorly fitted or top-dose-only effect; inactive = no such curve, though single readings can be large or run the other way;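 also: nearly all actives have a fitted effect of over 60% in size; nearly all hits also lower the signal before the agonist is added; a reference antagonist and vehicle were the controls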
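HEK293 cells stably expressing human Npr1 and cGMP GloSensor pGS-40F, loaded 2 h with 2% GloSensor reagent, given compound 30 min at room temperature. Luminescence read before and 20 min after 0.1 nM hNppA.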
Starred values were filed as active, the others as inactive; ? = inconclusive; [ ] = dose if it differs, or a comment. % is scaled to controls: 0 for no effect and ±100 for the full control effect; potency is read from the fitted curve at half-maximal effect. This is a subset. The share of hits here may be higher or lower than overall.

1	Cc1ccc(-c2cc3c(=O)n(CCNC(=O)Cc4c[nH]c5ccccc45)ccn3n2)cc1C
  NPR1 antag: -2.1%
2	CC(C)Oc1ccc2c(NC(=O)c3cocn3)nn(CC(F)(F)F)c2c1
  NPR1 antag: 7.8%
3	COCCNC(=O)CC(c1ccc(OC)c(OC)c1)c1c[nH]c2ccccc12 (stereo not drawn)
  NPR1 antag: -1.9%
4	COc1ccc(NC(=O)N2CCC3(CC2)SCC(=O)N3Cc2ccco2)c(OC)c1
  NPR1 antag: 13.6%
5	Cc1ccc(F)cc1-c1cn(C)c(=O)n2cc(COc3ccccc3)nc12
  NPR1 antag: 2.7%[70.6 µM]
6	C[C@@H](N)C(=O)N1CCC2(CC1)CC(=O)N(Cc1cc(F)cc(F)c1)C2
  NPR1 antag: 1.6%
7	COc1cccc(CN2CCOC[C@H](Oc3ccc(C(F)(F)F)cc3)C2)c1
  NPR1 antag: 3.3%[70.6 µM]
8	COc1ccc(-c2noc(CC3CCN(C(=O)c4cc(OC)c(OC)c(OC)c4)CC3)n2)cc1
  NPR1 antag: ?
9	N#Cc1cccc(-c2ccnc(N[C@H]3CO[C@H]4[C@@H]3OC[C@@H]4NC(=O)c3cccs3)n2)c1
  NPR1 antag: 4.8%[70.6 µM]
10	O=C(NC1CCN(c2cc(-c3cccs3)[nH]n2)CC1)c1cc(F)ccc1Cl
  NPR1 antag: -2.1%

11	CN(C)c1cccc(NC(=O)C2=NO[C@@H]3CN(Cc4ccc(F)cc4)C[C@H]23)c1
  NPR1 antag: 2.4%[70.6 µM]
12	COc1ccc(NC(=O)Cc2c[nH]c3ncc(-c4ccccc4)cc23)cn1
  NPR1 antag: ?
13	Cc1cccc(=O)n1CCC(=O)N1Cc2[nH]cnc2CC1C(=O)O (stereo not drawn)
  NPR1 antag: -3.5%
14	CCCNC(=O)C1COC2(CCN(C(=O)c3ccc(Cl)cc3)CC2)N1C(=O)c1cccc(OC)c1 (stereo not drawn)
  NPR1 antag: -3.3%
15	C=CCO[C@@H]1CCN2C(=O)c3cc(-c4ccc(F)cc4F)ccc3NC(=O)[C@H]12
  NPR1 antag: -1.2%[70.6 µM]
16	Cc1cccc(-n2c(=O)c3c(cc(C)n3C)n(CC(=O)N(C)c3ccccc3)c2=O)c1
  NPR1 antag: 1.4%
17	CN1CCN(C2CCOC3(CCN(C(=O)c4cccc5[nH]ccc45)CC3)C2)CC1 (stereo not drawn)
  NPR1 antag: 21.1%
18	COC[C@@H]1CN(C(=O)Cc2cccc(C)c2)C[C@H]1c1nc(C)no1
  NPR1 antag: -3.7%
19	CN(Cc1ccc(Cl)cc1)Cc1ccccc1C(F)(F)F
  NPR1 antag: -6.8%[70.6 µM]
20	Fc1ccc(-c2cnc3n2C[C@H](CNCc2ccccc2Cl)OC3)cc1
  NPR1 antag: 25.1µM*

21	Cn1cccc1C(=O)N1CCc2nc3cc[nH]n3c(=O)c2C1
  NPR1 antag: 1.1%
22	COCCN1CCC(C(=O)N2CCn3nc(Cc4ccccc4)cc3C2)C1 (stereo not drawn)
  NPR1 antag: 5.5%
23	CNC(=O)[C@@H]1C[C@H](Oc2ccccc2)CN1C(=O)c1cccnc1
  NPR1 antag: -0.3%
24	COc1ccc(-c2cc(N3CCC(NC(=O)Cc4ccc(Cl)cc4)CC3)n[nH]2)cc1
  NPR1 antag: -25.1%
25	O=C(c1ccc(CN2C(=O)NC3(CCS(=O)(=O)CC3)C2=O)cc1)N1CCCC1
  NPR1 antag: 5.2%
26	OC1(c2csc(CN3CCOCC3)n2)CCN(C2COC2)CC1
  NPR1 antag: 0.4%[70.6 µM]
27	O=C(NCc1ccc2c(c1)OCO2)C1Cn2cccc2C(=O)N1Cc1cccnc1 (stereo not drawn)
  NPR1 antag: -13.9%
28	Cc1cc(-c2nc(CC(C)C)nn2-c2ccccn2)cc(S(N)(=O)=O)c1C
  NPR1 antag: 3.3%
29	COc1ccc([C@H]2C[C@@H](O)[C@@H](O)[C@@H]2N2CCCCC2)cc1
  NPR1 antag: 2.1%[70.6 µM]
30	COc1ccc(-c2onc(C)c2C(=O)NCc2cccc(Cl)c2)cc1
  NPR1 antag: -8.1%

In the list so far, 6 contain a Cl atom:
10	O=C(NC1CCN(c2cc(-c3cccs3)[nH]n2)CC1)c1cc(F)ccc1Cl
  NPR1 antag: -2.1%
14	CCCNC(=O)C1COC2(CCN(C(=O)c3ccc(Cl)cc3)CC2)N1C(=O)c1cccc(OC)c1 (stereo not drawn)
  NPR1 antag: -3.3%
19	CN(Cc1ccc(Cl)cc1)Cc1ccccc1C(F)(F)F
  NPR1 antag: -6.8%[70.6 µM]
20	Fc1ccc(-c2cnc3n2C[C@H](CNCc2ccccc2Cl)OC3)cc1
  NPR1 antag: 25.1µM*
24	COc1ccc(-c2cc(N3CCC(NC(=O)Cc4ccc(Cl)cc4)CC3)n[nH]2)cc1
  NPR1 antag: -25.1%
30	COc1ccc(-c2onc(C)c2C(=O)NCc2cccc(Cl)c2)cc1
  NPR1 antag: -8.1%

Some of the entries above in another layout.
| No. | SMILES | NPR1 antag |
| --- | --- | --- |
| 23 | CNC(=O)[C@@H]1C[C@H](Oc2ccccc2)CN1C(=O)c1cccnc1 | -0.3% |
| 24 | COc1ccc(-c2cc(N3CCC(NC(=O)Cc4ccc(Cl)cc4)CC3)n[nH]2)cc1 | -25.1% |
| 30 | COc1ccc(-c2onc(C)c2C(=O)NCc2cccc(Cl)c2)cc1 | -8.1% |

(further entries)
31	O=[S+]([O-])(Nc1cccnc1)c1ccc2c(c1)OCCN(Cc1ccccc1F)C2
  NPR1 antag: ?
32	O=C(Cc1ccccc1)N1CCCC2(C1)Nc1cccnc1NC2=NC1CCCC1 (stereo not drawn)
  NPR1 antag: 0.3%
33	CN(C)c1ncc2c(n1)C(C)(C(=O)NCCOc1ccccc1)CCC2 (stereo not drawn)
  NPR1 antag: 2.0%[70.6 µM]
34	COc1ccc2c(c1)CN(C(=O)N1CCOCC1)CC[C@H]1COC(=O)N21
  NPR1 antag: 7.0%[70.6 µM]
35	O=C([C@@H]1C[C@H](F)CN1C(=O)Cc1cccs1)N1CCc2ccccc2C1
  NPR1 antag: -1.4%
36	c1cnc2nc(-c3c[nH]c4ncccc34)[nH]c2c1
  NPR1 antag: 12.4%[70.6 µM]
37	CNC(=O)CCC[C@@H]1[C@H]2CCCN3CCC[C@@H](CN1C(=O)C1CCCCC1)[C@@H]23
  NPR1 antag: 6.3%
38	COc1cc(OC)cc(C(=O)N[C@@H]2CN(c3ncccn3)C[C@H]2CO)c1
  NPR1 antag: 2.2%
39	Cn1cc(CN2CCOC[C@H]2c2ncc(C(C)(C)C)[nH]2)c2ccccc21
  NPR1 antag: 2.1%[70.6 µM]
40	O=C(c1ccc(Cl)cc1)N1CCC(N(C(=O)C2CC2)C2CCOCC2)CC1
  NPR1 antag: 2.8%

41	CC(C)S(=O)(=O)c1ncc(CN(C)Cc2cnn(C)c2)n1CCc1ccccc1
  NPR1 antag: -6.9%
42	CC1=NS(=O)(=O)N(C)C=C1C(=O)OCc1nc(-c2ccccc2Cl)no1
  NPR1 antag: -8.1%
43	CC1CCN(C(=O)c2ccccc2OCC2CCCN(C3CCSCC3)C2)CC1 (stereo not drawn)
  NPR1 antag: -15.3%
44	NC(=O)Cc1c[nH]c2ncc(-c3ccc(Cl)cc3)cc12
  NPR1 antag: -24.2%[70.6 µM]
45	COC(=O)C1CCN(C(=O)CC[C@H]2CNC(=O)[C@@H]3[C@@H](CCN3Cc3ccc(O)cc3)N2C)CC1
  NPR1 antag: 1.8%
46	CC(C)CNC(=O)C1CC(c2ccccc2F)=NO1 (stereo not drawn)
  NPR1 antag: 4.9%
47	CCC1Oc2ccc(NC(=O)C3CCCC3)cc2CN(Cc2ccc(F)cc2)C1=O (stereo not drawn)
  NPR1 antag: -22.0%
48	CC(C)Cn1nc2n(c1=O)CCN(S(=O)(=O)c1ccc3c(c1)CCCC3)CC2
  NPR1 antag: -28.4%
49	COc1ccc(C)cc1-c1ccc(COc2ccc3c(cnn3CCC(=O)O)c2)cc1
  NPR1 antag: -0.5%[70.6 µM]
50	COC(=O)[C@@H]1Cc2c([nH]c3ccccc23)[C@H]2C[C@@H](N3CCCCC3)C[C@@H](c3ccccc3F)N21
  NPR1 antag: 1.5%

51	COc1ccc(-c2cc(N3CCC(NC(=O)c4ccc(C#N)cc4)C3)n[nH]2)cc1 (stereo not drawn)
  NPR1 antag: -19.9%
52	Cc1c(F)cccc1CN1CCC2(CC1)CC(c1ccccc1)C(=O)N2C (stereo not drawn)
  NPR1 antag: -6.5%
53	CCN(C)Cc1nc(C2CCOCC2)nn1CC1COCCO1 (stereo not drawn)
  NPR1 antag: 7.7%
54	CCC(C(=O)NCCn1ccn2nc(-c3ccc(OC)cc3)cc2c1=O)c1ccccc1 (stereo not drawn)
  NPR1 antag: -16.9%
55	CCOCCn1c(=O)[nH]c2cc(C(=O)NCCc3ccc(C)s3)ccc21
  NPR1 antag: 3.9%
56	NC(=O)c1cc(-c2cc(NCc3cccnc3)nc3[nH]ccc23)ccc1F
  NPR1 antag: -0.2%
57	Cc1cc(C(=O)N2CCC(N3C[C@H](O)C[C@H]3C(=O)NC3CCCCC3)CC2)n(C)n1
  NPR1 antag: 5.9%
58	O=C(NC1CCCC1)N1CCC(c2noc(C3CC3)n2)C1 (stereo not drawn)
  NPR1 antag: -2.1%
59	COc1ccccc1-c1cc(-c2cccnc2)nc2c(C)noc12
  NPR1 antag: 2.1%[70.6 µM]
60	COC(=O)[C@@H](C)NC(=O)[C@H]1CN(C(=O)c2cccnc2)CCN1C(=O)NC(C)C
  NPR1 antag: 7.3%[70.6 µM]

Another view of some results above.
cpd	SMILES	NPR1 antag
55	CCOCCn1c(=O)[nH]c2cc(C(=O)NCCc3ccc(C)s3)ccc21	3.9%
56	NC(=O)c1cc(-c2cc(NCc3cccnc3)nc3[nH]ccc23)ccc1F	-0.2%
53	CCN(C)Cc1nc(C2CCOCC2)nn1CC1COCCO1 (stereo not drawn)	7.7%
58	O=C(NC1CCCC1)N1CCC(c2noc(C3CC3)n2)C1 (stereo not drawn)	-2.1%

The list goes on.
61	CN1CCCN(C[C@@H]2CN(S(C)(=O)=O)C[C@@H]2CO)CC1
  NPR1 antag: 3.5%
62	O=C(CC(c1ccccc1)c1ccccc1Cl)N1CCCC1 (stereo not drawn)
  NPR1 antag: -4.2%
63	Cc1ccccc1CN(CC1CCCO1)C(=O)c1cccc(CCC(C)(C)O)c1 (stereo not drawn)
  NPR1 antag: -11.2%
64	CC(=O)N1CCC(C(=O)Nc2nc3c(s2)C[C@]2(C)CC[C@@H]4[C@H](OC(=O)[C@H]4C)[C@H]2[C@@H]3C)CC1
  NPR1 antag: 3.7%
65	CNC(=O)N1CCC(C2CCN(C(=O)NC(C)(C)C)C2)CC1 (stereo not drawn)
  NPR1 antag: 4.4%
66	CC(C)c1nnsc1CNCc1ccccc1OCCCCN1CCOCC1
  NPR1 antag: -8.5%
67	COc1ccc(-c2ccc3c(c2)C(=O)N2CCN(C(=O)C4CCCCC4)C[C@@H]2C(=O)N3)cc1
  NPR1 antag: -11.7%
68	Cc1ccc(CN2CCN3C(=O)N(C4CCOCC4)C[C@H]3C2)cc1
  NPR1 antag: 3.3%[70.6 µM]
69	COc1cccc(C(=O)N2CCN(c3cc(-c4ccc(F)cc4)[nH]n3)CC2)c1OC
  NPR1 antag: 0.0%
70	O=C1CCN(C(=O)CC(c2ccccc2)c2ccc3c(c2)OCO3)CCN1 (stereo not drawn)
  NPR1 antag: -16.7%
71	COc1ccc(-c2ccnc3nc(CCc4ccccc4)nn23)cc1OC
  NPR1 antag: 1.4%
72	CC(C)(C)C1CCC2(CC1)NC(=O)N(CC(=O)NC1CCCCC1)C2=O (stereo not drawn)
  NPR1 antag: 5.5%
